Calb biofilm kill = clotrimazole potentiators killing C. albicans biofilm, primary screen, 4-compound mixtures; C. albicans biofilm persisters + clotrimazole, fluorescence viability; primary screen in compound mixtures of four per well; 120,000 tested, 0.02% active; inhibition, % at 7.6 µM;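 active = inhibition above 30.3% in the primary screen of four-compound pools, then above 30% when the compound was retested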;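 also: compounds exposed to preformed 24 h biofilms for 48 h; the number belongs to the whole pool; some results filed as inactive read as strong as hits; inactives centre near 12; 0% = biofilm with clotrimazole alone and 100% = kill control; retested singly at about 60 µM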
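System: C. albicans CAF4-2 wild-type biofilms; Medium: RPMI/MOPS medium, pH 7.0; Reagent: Clotrimazole, 50 µg/mL; Times: biofilm formation 24 h, compound exposure 48 h, 37 °C; Detection: 2-h Alamar Blue fluorescence, 535/590 nm excitation/emission; Evaluation: percent inhibition of biofilm viability.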
An asterisk follows results filed as active.

Screening COc1ccc(CCN2C(=O)CC(Cc3ccc(Br)cc3)C2=O)cc1OC (stereo not drawn) returned Calb biofilm kill 9.3.
For COc1cc(CNc2ncn[nH]2)ccc1OCc1cccc(C)c1 the results were Calb biofilm kill 13.5.
`CCc1ccc(S(=O)(=O)/N=C2\C=CC(=O)c3ccccc32)cc1` gave Calb biofilm kill 20.3.
For CCCOc1ccc(N2C(=O)CC(N(CCc3ccccc3)C(=O)c3ccccc3)C2=O)cc1 (stereo not drawn) the results were Calb biofilm kill 11.8.
`Cc1ccccc1C(=O)N(Cc1nc2ccccc2c(=O)[nH]1)C1CCCC1` gave Calb biofilm kill 3.7.
CC(C)c1ccc(OCC(=O)NCCO)cc1 was read as Calb biofilm kill 4.4.
CC(C)(O)CC[C@@H](O)[C@](C)(O)[C@H]1CC[C@@]2(O)C3=CC(=O)[C@@H]4C[C@@H](O)[C@@H](O)C[C@]4(C)C3CC[C@]12C (stereo partly drawn) was read as Calb biofilm kill 11.4.
For COc1ccccc1N(CC(=O)N(CC(C)C)CC(C)C)S(=O)(=O)c1cccs1 the results were Calb biofilm kill 9.5.
Screening O=C1C(Cl)=C(N2CCC(C(=O)O)CC2)C(=O)c2ccccc21 returned Calb biofilm kill 7.3.
Screening Nc1nc(Cl)cc(Oc2ccc(Cl)cc2)n1 returned Calb biofilm kill 2.3.
Screening CC1Sc2n(c3ccccc3[n+]2C)N=C1c1ccccc1 (stereo not drawn) returned Calb biofilm kill -5.0.
Screening Cc1cccc(C)c1N=C1SC(CC(=O)Nc2c(C)cccc2C)C(=O)N1CCc1ccccn1 (stereo not drawn) returned Calb biofilm kill 16.7.
`COc1ccc(-c2ccc(C(=O)O)o2)c([N+](=O)[O-])c1` gave Calb biofilm kill 17.6.
Screening CCN(CC)S(=O)(=O)c1cc(NC(=O)COC(=O)Cn2cnc3ccccc32)ccc1C returned Calb biofilm kill 7.0.
For Cc1c2cnn(-c3ccccc3)c(=O)c2c(C)n1CCCC(=O)NCCN1CCN(C)CC1 the results were Calb biofilm kill 17.9.
For Cc1cc(C)cc(C(=O)NCC(=O)OC(C)C(=O)N(C)c2ccccc2)c1 (stereo not drawn) the results were Calb biofilm kill -2.9.
Screening CC(=O)OCC1(C)CN(c2ccccc2)N(C(C)=O)C1=O (stereo not drawn) returned Calb biofilm kill 10.1.
`CCOC(=O)Cc1csc(NC(=S)NC(=O)c2ccc([N+](=O)[O-])cc2)n1` gave Calb biofilm kill 13.3.
Screening S=C(NC1CCCC1)NN1CCOCC1 returned Calb biofilm kill 10.1.
`O=C/C(=C\Nc1ccc(C(=O)N2CCOCC2)cc1)c1nc2ccccc2o1` gave Calb biofilm kill 15.5.

Grouped by structure: the entries above containing four or more nitrogen atoms
For COc1cc(CNc2ncn[nH]2)ccc1OCc1cccc(C)c1 the results were Calb biofilm kill 13.5.
Screening Cc1cccc(C)c1N=C1SC(CC(=O)Nc2c(C)cccc2C)C(=O)N1CCc1ccccn1 (stereo not drawn) returned Calb biofilm kill 16.7.
Screening CCN(CC)S(=O)(=O)c1cc(NC(=O)COC(=O)Cn2cnc3ccccc32)ccc1C returned Calb biofilm kill 7.0.
For Cc1c2cnn(-c3ccccc3)c(=O)c2c(C)n1CCCC(=O)NCCN1CCN(C)CC1 the results were Calb biofilm kill 17.9.
`CCOC(=O)Cc1csc(NC(=S)NC(=O)c2ccc([N+](=O)[O-])cc2)n1` gave Calb biofilm kill 13.3.

(listing goes on)
CCCCOc1cccc(C(=O)NC(=S)Nc2ccc(Cl)c(C(=O)O)c2)c1 was read as Calb biofilm kill 15.3.
For CN1CCN(C(=O)c2ccc3nc(-c4ccccc4)c(-c4ccccc4)nc3c2)CC1 the results were Calb biofilm kill 2.3.
Screening O=C(CN1C(=O)NC2(CCCCCCC2)C1=O)NCc1cccs1 returned Calb biofilm kill -2.2.
Screening CC(C)(C)n1cnnc1Sc1ccc([N+](=O)[O-])cn1 returned Calb biofilm kill 19.6.
For O=C(NNC(=O)C(c1ccccc1)c1ccccc1)c1ccccn1 the results were Calb biofilm kill 4.5.
For COc1ccc([N+](=O)[O-])c(S(=O)(=O)c2ccc(Cl)cc2)n1 the results were Calb biofilm kill 19.6.
Screening O=C1SC(SCc2ccccc2Cl)=N/C1=C\c1ccc(C(=O)O)cc1 returned Calb biofilm kill 16.7.
Screening O=C(Nc1ccc(OC(F)(F)F)cc1)c1ccc2nccnc2c1 returned Calb biofilm kill 13.1.
`CC(=O)Nc1ccc2oc(-c3ccccc3)nc2c1` gave Calb biofilm kill 10.8.
For N#Cc1ccc(OCC(=O)Nc2ccccc2NS(=O)(=O)c2cccs2)cc1 the results were Calb biofilm kill 15.6.
Screening Oc1c(N=NC(=S)Nc2ccccc2F)c2ccccc2n1Cc1ccc(F)cc1 returned Calb biofilm kill 98.0.
COC(=O)C1=C(C(=O)OC)[C@@H]2N(C)c3ccc(OC)cc3[C@@]23C[C@@H](C(=O)OC)N(C(=O)c2ccc(Br)cc2)C3=N1 was read as Calb biofilm kill 15.2.
Screening CC(=O)C1=C(O)C(=O)N(Cc2ccco2)C1c1ccccc1F (stereo not drawn) returned Calb biofilm kill -0.3.
`COc1ccccc1-n1c(SCc2cc(=O)oc3cc(O)ccc23)nc2ccccc2c1=O` gave Calb biofilm kill 8.0.
Screening CC1CC(C)(C)NC(=S)N1CCCC(=O)Nc1ccc(F)cc1 (stereo not drawn) returned Calb biofilm kill 8.5.
Screening COc1ccc(NCC(O)Cn2c(C)c(C)c3ccccc32)cc1 (stereo not drawn) returned Calb biofilm kill 15.8.
For O=c1[nH]c(=O)n(-c2ccccc2)c2c1C(C(F)(F)F)(C(F)(F)F)N=C(C1CCCCC1)N2 the results were Calb biofilm kill 9.2.
`Cc1ccc(NC(=S)N2CCC(c3ccccc3)C2)c(Cl)c1` (stereo not drawn) gave Calb biofilm kill 15.5.
Screening Cc1nn(C)c(C(=O)NNC(=S)NCc2ccco2)c1Cl returned Calb biofilm kill 16.0.
`COc1ccc(-c2c(C#N)c(N)nc(Sc3ccc(Cl)cc3)c2C#N)cc1` gave Calb biofilm kill 2.2.
For CN(CCCCCC(=O)/C=N/O)Cc1ccccc1 the results were Calb biofilm kill 11.0.
Cc1ccc(N2C(=O)[C@@H]3C(C(=O)C(c4ccccc4)c4ccccc4)=NN[C@@H]3C2=O)cc1 was read as Calb biofilm kill 23.5.
Screening CC(c1nccs1)N(C)c1nc2nonc2nc1N(C)C (stereo not drawn) returned Calb biofilm kill 51.6.
Clc1cccc2c1Sc1ccccc1CC2N1CCNCC1 (stereo not drawn) was read as Calb biofilm kill 9.0.
For C=CCNC(=S)NNC(=O)Cn1c(-c2ccccc2)cc(=O)n2ncnc12 the results were Calb biofilm kill 21.8.
`O=C(CN1CCN(Cc2ccc(Cl)cc2)CC1)N/N=C/c1c[nH]c2ccccc12` gave Calb biofilm kill 7.5.
Screening CC1CC(CC(C)C(=O)NC(=S)Nc2ccc(S(N)(=O)=O)cc2)C(=O)O1 (stereo not drawn) returned Calb biofilm kill 2.6.
For COc1ccc2ncc(S(=O)(=O)c3ccccc3)c(N3CCC4(CC3)OCCO4)c2c1 the results were Calb biofilm kill 6.7.
Cc1c(Cl)c([N+](=O)[O-])nn1CC(=O)NCC1CCCO1 (stereo not drawn) was read as Calb biofilm kill 26.8.
For CC(C)COC(=O)N1CCCC1C(=O)O (stereo not drawn) the results were Calb biofilm kill 21.8.
Screening O=C(O)Cc1sc(NCc2ccco2)nc1-c1ccccc1 returned Calb biofilm kill 23.0.
Screening CC(=O)/C(=N/Nc1ccc([N+](=O)[O-])cc1)N1CCCc2ccccc21 returned Calb biofilm kill 23.2.
O=C(CSc1nc2ncccc2[nH]1)Nc1ccc2c(c1)OCO2 was read as Calb biofilm kill 30.9.
CC(Oc1cc(F)ccc1[N+](=O)[O-])C(=O)N(C)CC(=O)Nc1ccccc1C(F)(F)F (stereo not drawn) was read as Calb biofilm kill 11.7.
Screening S=c1[nH]nc(-c2ccc3ccccc3n2)n1-c1ccc(Cl)cc1 returned Calb biofilm kill 5.0.
For C=C(C)C(=O)Nc1cccc(C2=NOC3(C2)C[C@@H](C(N)=O)N(C(=O)c2ccc(OC)cc2)C3)c1 (stereo partly drawn) the results were Calb biofilm kill 16.7.
Cc1nnsc1C(=O)Nc1cccc(Cl)c1 was read as Calb biofilm kill 10.1.
For CC#CCC(CC#CC)c1nc2ccccc2c(=O)n1N the results were Calb biofilm kill 15.6.
Screening CCCCNC(=O)Nc1nc(SCC(=O)OCC)n[nH]1 returned Calb biofilm kill 11.3.
For C=CCn1cccc(C(=O)Nc2ccc(OC)cc2OC)c1=O the results were Calb biofilm kill 14.9.
N#CC1=C(N)C(C#N)(C#N)[C@H](c2cccnc2)[C@H]2CN(C(=O)OCc3ccccc3)CC=C12 was read as Calb biofilm kill 15.0.
`Cc1ccc(C2=Nc3cccnc3C(c3ccccc3)=NN2)cc1` gave Calb biofilm kill 0.8.
For Cc1cc(-c2nn(-c3ccccc3F)cc2CN2CCC(C(N)=O)CC2)c(C)s1 the results were Calb biofilm kill 8.1.
Screening O=C(CSc1nnc(-c2ccc(F)cc2)c2ccccc12)NCC1CCCO1 (stereo not drawn) returned Calb biofilm kill 10.0.
Screening CCOc1ccc(S(=O)(=O)NCCCl)cc1 returned Calb biofilm kill -3.1.
CCN(C(=O)CSc1nnc(C)n1Cc1ccccc1)C1CCS(=O)(=O)C1 (stereo not drawn) was read as Calb biofilm kill 6.8.
Screening CCc1ccccc1NC(=O)CSc1ccsc1[N+](=O)[O-] returned Calb biofilm kill 8.1.
For CCCOc1ccc(N2C(=O)CC(N(CCc3ccc(OC)c(OC)c3)C(=S)Nc3ccccc3)C2=O)cc1 (stereo not drawn) the results were Calb biofilm kill -12.9.
For CCc1nnc(NC(=O)C2=NN(C3CCS(=O)(=O)C3)C(=O)CC2)s1 (stereo not drawn) the results were Calb biofilm kill 16.2.
`CCS(=O)(=O)Nc1cccc(-c2cc(-c3ccccc3)c3cc(C)ccc3n2)c1` gave Calb biofilm kill 8.7.
Cc1nc(Nc2cccc(C(C)O)c2)c2nnn(Cc3ccccc3F)c2n1 (stereo not drawn) was read as Calb biofilm kill 10.2.
For Cc1cccc2sc(NC(=O)c3ccc(OCC4CCCO4)cc3)nc12 (stereo not drawn) the results were Calb biofilm kill 10.1.
For CC(=O)Nc1cccc(-c2cc(-c3c(Cl)cccc3Cl)no2)c1 the results were Calb biofilm kill 23.6.
For COc1cc(NC(=O)c2cccc(Br)c2)nc(OC)n1 the results were Calb biofilm kill 23.9.
`O=C(NC(NC(=S)Nc1ccccc1Cl)C(Cl)(Cl)Cl)c1cccc(Cl)c1` (stereo not drawn) gave Calb biofilm kill 2.5.
`O=C(NCCc1ccccc1)C1CCN(C2CCN(C(=O)CC3=CCCCC3)CC2)CC1` gave Calb biofilm kill 14.9.
CC(=O)Nc1ccc(-c2csc(NC(=O)CCCc3cccs3)n2)cc1 was read as Calb biofilm kill 6.6.
For c1ccc(COc2ccc(CNCc3cccnc3)cc2)cc1 the results were Calb biofilm kill -11.8.
Screening O=C1C(Nc2ccc(O)cc2)=C/C(=N/S(=O)(=O)c2cccs2)c2ccccc21 returned Calb biofilm kill 8.9.
`CCN(CC)S(=O)(=O)c1cc(NC(=O)c2n[nH]c(=O)c3ccccc23)ccc1C` gave Calb biofilm kill 13.3.

Of the compounds above, these have a CF3 group:
Screening O=C(Nc1ccc(OC(F)(F)F)cc1)c1ccc2nccnc2c1 returned Calb biofilm kill 13.1.
For O=c1[nH]c(=O)n(-c2ccccc2)c2c1C(C(F)(F)F)(C(F)(F)F)N=C(C1CCCCC1)N2 the results were Calb biofilm kill 9.2.
CC(Oc1cc(F)ccc1[N+](=O)[O-])C(=O)N(C)CC(=O)Nc1ccccc1C(F)(F)F (stereo not drawn) was read as Calb biofilm kill 11.7.

More results.
`CC1(C)OC(=O)C(=NNc2ccccc2C(=O)O)C(=O)O1` gave Calb biofilm kill -0.3.
`CCC(=NCCc1c(C)[nH]c2ccc(OC(F)(F)F)cc12)C1=C(O)CC(c2ccccc2)CC1=O` (stereo not drawn) gave Calb biofilm kill 2.0.
CC(C)(C)N(CC#CCC1(O)c2ccccc2-c2ccccc21)CCO was read as Calb biofilm kill 17.9.
For Cc1cccc(C)c1NC(=O)COC(=O)c1cccc2c1C(=O)c1ccccc1C2=O the results were Calb biofilm kill 16.8.
O=S1CC/C(=N\O)c2ccccc21 (stereo not drawn) was read as Calb biofilm kill 13.7.
`COc1ccc(CC(=O)NNC(=O)CSc2nnc(Cc3ccc(OC)cc3)n2-c2ccccc2)cc1` gave Calb biofilm kill 4.0.
Cc1cccc(OCc2nnc(SCC(=O)Nc3cccc(C(=O)N4CCOCC4)c3)n2C)c1 was read as Calb biofilm kill 5.6.
For CC(C)(C)NC(=O)NC(=O)CN1CCc2ccccc21 the results were Calb biofilm kill -5.2.
`CCCc1noc(-c2cccc([N+](=O)[O-])c2)n1` gave Calb biofilm kill -0.9.
Cc1nc(CS(=O)(=O)c2ccccc2)cc(N2CCN(c3ccccc3F)CC2)n1 was read as Calb biofilm kill 12.2.
C[C@@H]1C[C@H]2[C@@H]3CCC4=CC(=O)C=C[C@]4(C)[C@@]3(F)[C@@H](O)C[C@]2(C)[C@@]1(O)C(=O)COP(=O)(O)O was read as Calb biofilm kill 7.4.
Screening CC(C)[C@H](NC(N)=O)C(=O)Nc1ccc(F)c(Cl)c1 returned Calb biofilm kill -5.5.
`O=C(CNC(=O)c1ccccc1)OCc1nc2ccccc2s1` gave Calb biofilm kill 10.9.
For CCOC(=O)c1cc(C)sc1NC(=O)C(c1ccccc1)c1ccccc1 the results were Calb biofilm kill -1.3.
For Cc1ccc(Cn2c(SCC(=O)NCC3CCCO3)nc3ccsc3c2=O)cc1 (stereo not drawn) the results were Calb biofilm kill 22.7.
For Cc1cccn(Cc2c(F)cccc2Cl)c1=O the results were Calb biofilm kill 13.7.
`O=C(CCc1nnc(Cc2ccc(-c3ccccc3)cc2)o1)NCC1CC1` gave Calb biofilm kill 24.4.

Screening data as filed in PubChem.

Only part of the results is shown. The share of hits here may be higher or lower than overall.
